HIV TAR-Tat = HIV-1 TAR-Tat binding disruption; HIV-1 TAR RNA, Tat peptide displacement FRET; stronger effect = higher value; z-score (no concentration beside the values); 100,000 tested, 0.6% active; AID 1259389;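 also: score is relative to mean and SD of negative controls; some compounds called inactive have numbers as strong as hits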
CDC25B CDK2 inh = human CDC25B-CDK2/CyclinA binding inhibition. P30305+P24941. HTRF CDC25B-CDK2/CyclinA binding, anti-His/anti-Flag; stronger effect = higher value. z-score (test concentration not listed). 94,000 tested, 0.72% active. AID 1259370;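 also: score is relative to mean and SD of negative controls; strong numbers were not always called active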
An asterisk follows results filed as active; . = no result given.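 The calls were made as follows: active = z-score from 3 up in half or more of its runs; inactive = the rest.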

SMILES	HIV TAR-Tat	CDC25B CDK2 inh
O=C(Nc1cccc(OC2=NS(=O)(=O)c3ccccc32)c1)C1CC1	-1.17	-2.19
Cc1cc(C)cc(Oc2coc3cc(OC(=O)c4ccco4)ccc3c2=O)c1	2.72	-2.26
C=CCN1C(=O)C(O)(CC(=O)c2ccc(CC)cc2)c2cc(Br)ccc21 (configuration not stated)	0.46	0.56
Cc1nc(-c2cccc(F)c2)sc1CCNS(=O)(=O)c1ccc2c(c1)OCCO2	0.77	.
O=C1CCSc2ccc(S(=O)(=O)N3CCN(CCOc4ccc(Cl)cc4)CC3)cc2N1	-0.21	.
O=C1CC(c2cc(F)cc(F)c2)c2ccc3ccccc3c2N1 (configuration not stated)	0.55	-0.55
COc1ccc(OC)c(C(=O)c2coc3ccc(OCC(=O)O)cc23)c1	2.11	-0.75
C=C(c1ccccc1)c1ccc(OC)cc1	1.76	-0.24
O=C(Nc1ccc(F)c(Cl)c1)C1CCCN(S(=O)(=O)c2ccc3[nH]c(=O)oc3c2)C1 (configuration not stated)	0.33	.
CNS(=O)(=O)c1ccc2c(c1)c(=O)n(CC(=O)N1CCCC1)c(=O)n2C	0.61	.
Cn1c(=O)c2c(nc(NC3CCCC3)n2Cc2cccc(Br)c2)n(C)c1=O	2	-2.37
O=c1c2cccnc2n(Cc2cccc(Cl)c2)c(=O)n1Cc1ccc2c(c1)OCO2	0.25	-0.52
O=C(c1ccccc1)c1nnc(-c2ccccc2)o1	0.3	0.27
COc1ccc(OCc2nnc3n2N=C(c2ccc(OC)cc2)CS3)cc1	1.06	0.28
N#C/C(=C\c1ccc(O)cc1)c1ccc([N+](=O)[O-])cc1	.	-0.03
CCCCNC(=O)Cn1cnc2c1c(=O)n(C)c(=O)n2C	.	0.93
Cc1cc(C)c2c(C)nn(-c3cccc(Cl)c3)c2n1	-0.86	-0.98
CCOC(=O)C1CCN(c2c(NC3CCCCCCC3)c(=O)c2=O)CC1	.	-1.15
Cc1ccc(N(C)c2c(-c3ccc(Cl)cc3)c(=O)c2=O)cc1	0.45	.
Cc1nc(N2CCCC2)cc(N2CCN(S(=O)(=O)c3ccccc3)CC2)n1	0.32	-1.76
Nc1nc(-c2ccc(Cl)cc2)nc2sc3c(c12)CCCCC3	.	-2.06
O=c1[nH]cccc1-c1nc(-c2cccc(Br)c2)no1	0.89	1.64
CS(=O)(=O)Nc1cc(NS(C)(=O)=O)cc(C(F)(F)F)c1	.	-1.71
c1csc(-c2nc3c4c5c(sc4ncn3n2)CCCCC5)c1	0.34	0.8
O=c1c(N2CCCCC2)csc2ccc(Cl)cc12	0.54	.
Cc1c(C#N)c(Sc2ccccc2NC(=O)c2cccs2)nc2ccccc12	.	-0.71
CC(C)(C)c1ccc(-c2noc(C(=O)NNC(=S)Nc3cccc(C(F)(F)F)c3)n2)cc1	.	-1.28
CSc1ccccc1NC(=O)c1cc(C)no1	.	-2.95
O=C1OC2(CCCCC2)OC(c2ccccc2)=C1c1nc2ccccc2nc1-c1ccccc1	.	-9.94
COc1ccc(-c2noc(-c3cccnc3NCc3ccco3)n2)cc1	-0.31	-0.77
Cc1ccc(CN2CCC(CNC(=O)Nc3cc(F)ccc3F)C2)cc1 (configuration not stated)	1.58	-2.43
Nc1ncn([C@H]2C[C@H](O)[C@@H](CO)O2)c(=O)n1	0.6	.
Cn1c(=O)oc2cc(S(=O)(=O)NCCC(=O)NC3CCCC3)ccc21	.	0.37
NC(C(=O)O)C(O)C(=O)O (configuration not stated)	2.12	.
O=C1CN(Cc2ccccc2Cl)S(=O)(=O)c2ccccc2N1Cc1ccccc1	2.15	.
CCCn1c(C2CC(=O)N(c3ccccc3)C2)nc2ccccc21 (configuration not stated)	0.07	-1.06
Cc1ccc(CN(C)CCc2ccccn2)cc1	0.71	0.08
Cc1nn(-c2ccccc2)nc1C(=O)NC1CCS(=O)(=O)C1 (configuration not stated)	.	-2.32
O=C(CSc1nnc2sc3ccccc3n12)N1CCN(c2ccccc2)CC1	-0.51	-2.01
Cc1nc(-c2ccc(N3CCN(C(=O)C4CC(=O)N(C5CCCC5)C4)CC3)cc2)no1 (configuration not stated)	-0.98	.

Some of these compounds in order of SMILES length, highest first.
SMILES	HIV TAR-Tat	CDC25B CDK2 inh
O=C1CN(Cc2ccccc2Cl)S(=O)(=O)c2ccccc2N1Cc1ccccc1	2.15	.
Cc1c(C#N)c(Sc2ccccc2NC(=O)c2cccs2)nc2ccccc12	.	-0.71
CS(=O)(=O)Nc1cc(NS(C)(=O)=O)cc(C(F)(F)F)c1	.	-1.71
O=c1[nH]cccc1-c1nc(-c2cccc(Br)c2)no1	0.89	1.64
NC(C(=O)O)C(O)C(=O)O (configuration not stated)	2.12	.

New compounds follow.
SMILES	HIV TAR-Tat	CDC25B CDK2 inh
Cc1cc(C)c2nc(NC(=O)c3sc(C)nc3C)sc2c1	-0.01	-2.23
Cc1ccc(Nc2nc(N)nc(CN3CCN(Cc4ccc5c(c4)OCO5)CC3)n2)c(C)c1	0.18	.
COc1ccc(Oc2ccc(C(F)(F)F)cc2NC(=O)CC(CC(=O)O)c2ccccc2)cc1 (configuration not stated)	.	-1.22
CCCC1c2ccc(C)n2CCN1C(=O)Nc1cc(Cl)c(OC)cc1OC (configuration not stated)	-11.7	-1.16
COC(=O)c1sccc1Oc1ccc(C(F)(F)F)cc1NS(=O)(=O)c1ccc(Cl)cc1	.	-0.49
CNC(=O)c1c(NC(=O)CCSc2ccccc2)sc2c1CCC2	0.4	.
CC(=O)NC1=NN(C(C)=O)C(c2ccc(-c3cccc(C(=O)O)c3)o2)S1 (configuration not stated)	-0.39	-1.07
CCOC(=O)Cn1c(-c2ccco2)nc(-c2ccccc2)c1-c1ccccc1	.	-0.98
Cc1cc(NC(=O)C2CC(=O)OC2c2ccccc2)no1 (configuration not stated)	.	-0.88
O=C(CCCn1ccc2cc(S(=O)(=O)N3CCCC3)ccc21)NCc1cccs1	1	.
CCCCc1nn2c(=O)cc(COC(=O)CSc3ccc(C)cc3)nc2s1	0.18	.
O=C(CN1CCOCC1)OCCCN=C1NS(=O)(=O)c2ccccc21	.	0.49
CC1CN(CC(=O)NCCCN2CCOCC2)c2ccccc2S1 (configuration not stated)	0.65	.
CC1CCN(C(=O)C2CCC(CNc3c(N4CCOCC4)c(=O)c3=O)CC2)CC1 (configuration not stated)	0.98	0.32
CCOc1ccc(NC(=O)CN2N=NC3C(=O)N(c4ccc(Br)cc4)C(=O)C32)cc1 (configuration not stated)	-0.76	.
CC(Sc1nnc2n(C)c3ccccc3n12)C(=O)O (configuration not stated)	.	-1
N#Cc1nc(/C=C/c2cccs2)oc1N1CCN(C(=O)c2cccs2)CC1	0.63	0.87
COc1ccc(-c2c(C)n([O-])c3c([n+]2=O)CCC3)cc1OC	.	0.22
CCOCCCN1C(=O)c2cc3oc(C)cc3n2CC1(C)C(=O)NC1CCCCC1 (configuration not stated)	1.21	.
O=C(NCc1cccnc1)c1ccc2nc3ccsc3c(=O)n2c1	.	-0.53
CN(C)CCN(Cc1ccco1)S(=O)(=O)c1ccc(-c2ccc(=O)[nH]n2)s1	0.8	.
CCOCCCNC(=O)c1[nH]c(C)c(C(C)=O)c1C	.	-1.23
CN(CCNC(=O)C1CCN(C(=O)c2ccc(-n3ccc4ccccc43)s2)CC1)C1CCCCC1	-0.11	.
Cc1nc(-c2ccccc2)sc1C(=O)Nc1sc2c(c1C#N)CCC2	16.7*	8.48
O=C(O)CC12CSc3[nH]c(=O)sc3C1c1cc(Cl)ccc1OC2=O (configuration not stated)	.	0.36
CCCCCNCc1ccc2c(c1)n(C)c(=O)n2C	0.21	-0.1
Cc1ccc(S(=O)(=O)N2CCCc3cc(NS(=O)(=O)c4ccc(F)c(C)c4)ccc32)cc1	-0.14	.
CC(C)NC(=O)N1CC2CCCN2c2ccccc21 (configuration not stated)	-9.3	.
Cc1c(C(=O)N2CCCC2)oc2c1-c1nn(CC(=O)NCCCN3CCCCC3)cc1CC2	2.62	.
CC(C)CCNc1nc2ccccc2c2nc(-c3cccnc3)nn12	-0.12	-0.9
O=C(Cc1csc(-c2ccccc2)n1)Nc1nccs1	-0.49	-0.42
Nc1nonc1-c1nc2ccccc2n1Cc1nc2ccccc2c(=O)[nH]1	2.08	-1.33
CCC(=O)N1CCc2cc(Br)cc(S(=O)(=O)N3CCN(C)CC3)c21	.	-0.94
CCN(CC)S(=O)(=O)c1ccc2c(c1)N(CC(=O)N1CCc3ccccc31)C(=O)C1CCCCN21 (configuration not stated)	1.44	.
c1ccc(-c2nn3c(C4COc5ccccc5O4)nnc3s2)nc1 (configuration not stated)	2.53	-0.83
Cc1ccc(/C(O)=C2\C(=O)C(=O)N(CCN(C)C)C2c2ccccc2F)cc1 (configuration not stated)	-1.04	-0.74
O=C1CC(c2ccccc2Cl)C2=C(CC(c3ccccc3Cl)CC2=O)N1 (configuration not stated)	15.1*	3.05
N/C(=N\OC(=O)C(Cl)Cl)c1ccc(OCc2ccccc2)cc1	.	-0.63
CC1CC(=O)Nc2cc(S(=O)(=O)NCCc3ccco3)ccc2S1 (configuration not stated)	1.84	.
CCOC(=O)c1c(C)[nH]c(C)c1S(=O)(=O)NC(CC)CN1CCOCC1 (configuration not stated)	1.21	.
CNc1nc(C(N)=O)c(NC(=O)CN2C(=O)C(C)Oc3ccccc32)s1 (configuration not stated)	-0.46	.
CC(C)(C)C1CCc2c(sc3nc(CCC(=O)N4CCC(C(N)=O)CC4)[nH]c(=O)c23)C1 (configuration not stated)	0.16	.
CSc1cccc(NC(=O)CSc2nc3ccccc3s2)c1	0.14	-3.05
Cc1c(C)n(-c2cccnc2)c2ncn3nc(-c4ccc(C(C)(C)C)cc4)nc3c12	1.19	-1.29
O=C1C(=O)N(O)C2CCCCC2N1O (configuration not stated)	.	-2.5
O=C(O)Cn1nnc(-c2ccccc2F)n1	1.6	1.37
O=C(NCc1ccco1)C1Sc2nnc(-c3ccccc3)n2NC1c1ccc(Cl)cc1 (configuration not stated)	0.02	-2.04
O=C(C1CC1)N1c2ccccc2Sc2ccccc21	0.6	-0.52
CCC(CN1CCOCC1)NS(=O)(=O)c1ccc2c(c1)CCCC(=O)N2 (configuration not stated)	-0.53	.
CN1C(=O)/C(=C2/SC(=S)N(CCC(=O)O)C2=O)c2cc(Br)ccc21	.	-2.55
O=c1c2ccccc2nc2sc(Nc3ccccc3)nn12	1.06	.
CCCCCc1c(C)nc2c(-c3ccccc3)c(C)[nH]n2c1=O	1.39	-0.82
O=C(O)C1C2CC=CC2c2cc(Oc3ccccc3)cc3c2N1CC1CC=CC31 (configuration not stated)	-11.7	-0.12
COc1ccc(NC2CC(=O)N(c3ccccc3F)C2=O)cc1 (configuration not stated)	-0.19	-1.42
Cn1c(SCc2c(F)cccc2Cl)nnc1-c1ccc2c(c1)OCCCO2	1.05	.
CS(=O)(=O)Nc1nc2ccc(NC(=O)CSc3ccncc3)cc2s1	-0.82	.
CCOc1ccc(N(C(=O)c2cc3ccccc3oc2=O)C2C=CS(=O)(=O)C2)cc1 (configuration not stated)	.	0.72
Cc1cc(C)c2c(=O)c3c(oc2c1)C(=O)N(CCCOC(C)C)C3c1ccc(Cl)cc1 (configuration not stated)	0.89	-0.31
O=C(C1CC1)N1CCN(c2ncnc3scc(-c4ccccc4)c23)CC1	.	0.9
O=C1c2cccnc2C(Nc2ccc(Br)cc2)N1Cc1ccco1 (configuration not stated)	2.05	.

(cont.)
SMILES	HIV TAR-Tat	CDC25B CDK2 inh
NC(N)=NC(N)=Nc1ccc(F)c(Cl)c1	.	-0.46
Cc1cc(CNC(=O)NC2CCCCC2)c(C)n1-c1ccc(F)cc1	-0.45	-0.18
CCOC(=O)C1=C(C)NC2=C(C(=O)CC(C)(C)C2)C1c1ccc(OC(C)C)c(OC)c1 (configuration not stated)	0.71	-0.32
Cn1c(Cn2c(=O)sc3ccccc32)nnc1SCC(=O)NCc1ccc(F)cc1	.	0.48
CC1CN(C2=NS(=O)(=O)c3ccccc32)CC(C)O1 (configuration not stated)	.	-2.04
CC(C)C(=O)Nc1nn2c(-c3cccs3)nnc2s1	1.47	-1.76
COc1ccc(COCC(O)CN2CCN(c3ccc(C(F)(F)F)cn3)CC2)cc1 (configuration not stated)	.	-2.57
Cc1ccc(Cn2ccc(NC(=O)C3=CC(c4ccc(C)cc4)=NS(=O)(=O)N3C)n2)cc1	0.97	-2.79
O=C(O)Cn1ccc2cc(S(=O)(=O)N3CCCC3)ccc21	-1.3	0.39
Cn1ccc2cc(S(=O)(=O)N3CCN(C(=O)Nc4cccc(Br)c4)CC3)ccc21	-0.07	.

Individual results from the results shown.
O=C(O)Cn1ccc2cc(S(=O)(=O)N3CCCC3)ccc21 | CDC25B CDK2 inh: 0.39
Cc1ccc(Cn2ccc(NC(=O)C3=CC(c4ccc(C)cc4)=NS(=O)(=O)N3C)n2)cc1 | CDC25B CDK2 inh: -2.79

At a glance, some entries already given.
SMILES	HIV TAR-Tat	CDC25B CDK2 inh
Cc1ccc(Cn2ccc(NC(=O)C3=CC(c4ccc(C)cc4)=NS(=O)(=O)N3C)n2)cc1	0.97	-2.79
O=C(O)Cn1ccc2cc(S(=O)(=O)N3CCCC3)ccc21	-1.3	0.39
Cn1ccc2cc(S(=O)(=O)N3CCN(C(=O)Nc4cccc(Br)c4)CC3)ccc21	-0.07	.

Source: PubChem BioAssay (Center for Chemical Genomics, University of Michigan)

Not a hit list; about 0.87% have a hit in one of these screens.
